High-throughput results deposited in PubChem by National Center for Advancing Translational Sciences (NCATS).
LASV entry inh: qHTS for Inhibitors of binding or entry into cells for Lassa Virus; Lassa virus pseudotype entry inhibition, cell reporter; control for the full effect not named in the record; AID 540256, 2011; Potency, µM (doses to about 37.9 µM), without a hit: top-dose activity change, negative = inhibition, hits mostly inhibitors; 300,000 compounds, 1.2% hits; active means well fitted inhibition curve with a large enough effect; inconclusive means small, poorly fitted or top-dose-only effect, or effect the other way; inactive means flat fitted curve, though single readings scatter; tested in HEK293 cells; also: % is scaled to controls: 0 for no effect and ±100 for the full control effect; nearly all actives have a fitted effect of over 50% in size; luciferase read-out
Marburg entry inh: qHTS for inhibitors of binding or entry into cells for Marburg Virus. Marburg virus pseudotyped entry inhibition, cell reporter; control for the full effect not named in the record; about a third of the inactives were read at about 46 µM. Potency, µM (highest dose often 37.8 µM), for the others: top-dose activity change, negative = inhibition, hits mostly inhibitors. 300,000 compounds, 1.8% hits; active = well fitted inhibition curve with a large enough effect; inconclusive = small, poorly fitted or top-dose-only effect, or effect the other way; inactive = flat fitted curve, though single readings scatter; tested in HEK293 cells; about a fifth of its hits are not listed in these tables; also: % is scaled to controls: 0 for no effect and ±100 for the full control effect; luciferase read-out
NS1 function inh: qHTS Assay for Inhibitors of Influenza NS1 Protein Function; S. cerevisiae slowed by influenza A NS1, growth recovery by OD600; 270,000 compounds, 0.4% hits; Potency, µM (highest dose often 46.1 µM), for inactives: top-dose activity, positive = more growth; AID 2326, 2010; active means well fitted rising curve with a large enough effect; inconclusive means small, poorly fitted or top-dose-only effect; inactive means no such curve, though single readings can be large or run the other way; also: nearly all actives have a fitted effect of over 50% in size
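S. cerevisiae expressing influenza A NS1, grown in glucose, washed, then diluted 1:100 into pH 6.0 -URA galactose medium with 23 nl compound. Growth recovery read as OD600; NS1-free strain serves as control.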
RE007 growth inh: qHTS Assay for Inhibitors of the HIV-1 protein Vpr; AID 651644, 2012; S. pombe RE007 Vpr strain, BacTiter-Glo ATP luminescence, 24 h; control for the full effect not named in the record; Potency, µM (series often up to 92.2 µM), for the others: at the highest dose activity change, negative = less growth; 360,000 compounds, 0.21% hits; active = well fitted falling curve with a large enough effect; inconclusive = small, poorly fitted or top-dose-only effect; inactive = no such curve, though single readings can be large or run the other way;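 also: % is scaled to controls: 0 for no effect and ±100 for the full control effect; nearly all actives have a fitted effect of over 50% in size; the assay follows cell death caused by Vpr and the record does not say whether a fall means rescue or toxicity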
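Fission yeast RE007 carrying one integrated HIV-1 vpr copy, seeded at OD 0.01 in PMG+AL medium with 23 nL pinned compound. Grown 24 h at 30 degrees; viability read by BacTiter-Glo luminescence after 5 min.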
Cruzain inh Det: qHTS Assay for Promiscuous and Specific Inhibitors of Cruzain (with detergent); 200,000 compounds, 0.43% hits; purified cruzain, Z-FR-AMC fluorescence, 0.01% Triton; Cruzipain (Trypanosoma cruzi), P25779; Potency, µM, without a hit: max response, negative = inhibition, hits mostly inhibitors; AID 1478, 2009;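 also: plate controls were neutral wells for no effect and buffer without enzyme for full effect; nearly all actives have a fitted effect of over 40% in size; top concentration of the series not given in the record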
Target sequence (P25779 123-467 limits assumed): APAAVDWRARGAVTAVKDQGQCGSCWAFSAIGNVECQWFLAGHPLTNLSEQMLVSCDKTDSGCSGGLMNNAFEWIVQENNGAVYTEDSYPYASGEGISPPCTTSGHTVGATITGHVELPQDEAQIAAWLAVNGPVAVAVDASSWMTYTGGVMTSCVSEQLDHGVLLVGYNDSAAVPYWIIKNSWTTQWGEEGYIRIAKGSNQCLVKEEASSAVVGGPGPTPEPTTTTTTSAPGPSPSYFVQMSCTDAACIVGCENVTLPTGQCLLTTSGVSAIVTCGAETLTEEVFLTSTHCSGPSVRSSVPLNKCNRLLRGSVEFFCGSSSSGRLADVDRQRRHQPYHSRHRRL
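Z-FR-AMC hydrolysis (2 uM substrate) by cruzain (1.5 nM) monitored kinetically at ex 360/em 450 nm after 15 min room-temperature compound exposure; 0.01% Triton X-100, pH 5.5, 5 mM DTT.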
Cruzain noTriton: qHTS Assay for Promiscuous and Specific Inhibitors of Cruzain (without detergent); Cruzipain (Trypanosoma cruzi), P25779; purified cruzain, Z-FR-AMC fluorescence, no detergent; Potency, µM, inactives show max response, negative = inhibition, actives largely listed as inhibitors; 200,000 compounds, 2.3% hits;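 also: plate controls were enzyme without inhibitor for no effect and buffer without enzyme for full effect; nearly all actives have a fitted effect of over 40% in size; top concentration of the series not given in the record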
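Detergent-free condition (0.00005% Triton X-100) in acetate buffer pH 5.5 with DTT. 1.5 nM enzyme and compound were pre-mixed 15 min, then 2 uM Z-FR-AMC substrate added; reaction progress from fluorescence change between first and third reads (60 s).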
SARS PLP yeast: qHTS of Yeast-based Assay for SARS-CoV PLP; 330,000 compounds, 0.19% hits; Potency, µM (doses to about 32.9 µM), for inactives: top-dose activity, positive = growth rescue; S. cerevisiae expressing SARS-CoV PLpro, growth rescue; control for the full effect not named in the record; AID 485353, 2010; active means well fitted rising curve with a large enough effect; inconclusive means small, poorly fitted or top-dose-only effect; inactive means no such curve, though single readings can be large or run the other way; also: 0% is about no effect; nearly all actives have a fitted effect of over 55% in size; growth read by luminescence after 48 h
2A StopGo: High Throughput Screening for Foot and Mouth Disease Virus Antivirals; human cells with a luciferase reporter of 2A StopGo recoding; control for the full effect not named in the record; Potency, µM (doses to about 57.9 µM), for inactives: at the highest dose signal change, negative = less light; 410,000 compounds, 1.2% hits; active = well fitted falling curve with a large enough effect; inconclusive = small, poorly fitted or top-dose-only effect; inactive = no such curve, though single readings can be large or run the other way; tested in HEK293T cells; also: % is scaled to controls: 0 for no effect and ±100 for the full control effect; nearly all actives have a fitted effect of over 45% in size; luciferase light after 4 h
* hit, by the source's call; u = inconclusive; x = no result given; & = joins results of further samples; [ ] = dose if it differs, or a comment. Unless noted, calls follow the shape of the dose curve; as a rule, active = well fitted curve in the direction sought with a large enough effect; inconclusive = small, poorly fitted or top-dose-only effect, or another doubt; inactive = no such curve, though single readings can be large; an effect the other way counts as inactive or inconclusive. Potency is read from the fitted curve at half-maximal effect.

SMILES	LASV entry inh	Marburg entry inh	NS1 function inh	RE007 growth inh	Cruzain inh Det	Cruzain noTriton	SARS PLP yeast	2A StopGo
COc1ccc(CCn2c(O)c(/C=N/NC(=O)c3ccncc3)c(=O)[nH]c2=O)cc1OC	1.2%	4.0%	-4.4%	6.0%	-6.4%	-7.0%	0.2%	-20.2%
COc1cc2c(cc1OC)C(c1ccco1)CC(=O)N2 (stereo unspecified)	x	x	u	6.4%	-0.7%	-5.2%	5.0%	-5.7%
CCc1c(C)sc(NC(=S)N2CC(C)OC(C)C2)c1C(=O)OC (stereo unspecified)	x	x	10.1%	16.6%	x	x	-0.1%	2.5%
CCOc1ccc2cc(C3CC(c4ccco4)=NN3S(C)(=O)=O)c(Cl)nc2c1 (stereo unspecified)	u	19.1%[46.1 µM]	-9.4%	10.0%	x	x	-2.1%	11.6%
O=C(NCc1ccccc1Cl)C1CCC(CNc2c(N3CCOCC3)c(=O)c2=O)CC1 (stereo unspecified)	1.5%	-10.1%[46.1 µM]	0.8%	-12.3%	x	x	-4.5%	-15.5%
CCNC(=O)CC1C(=O)N(c2ccc(C)cc2)C(=O)N1Cc1ccccn1 (stereo unspecified)	8.3%	-1.3%	-16.9%	-4.9%	9.2%	-0.8%	3.5%	x
COc1ccc(CC(=O)Nc2ccc(-c3nc4ccccc4s3)cc2Cl)cc1OC	-25.2%[46.1 µM]	x	x	x	-0.5%	u	x	2.1%
Cc1ccc(CCNC(=O)C2CCCN(C(=O)c3cc4sccc4n3C)C2)cc1 (stereo unspecified)	u	u	-7.9%	6.5%	5.8%	u	3.4%	x
CN(C)S(=O)(=O)c1ccc(N2CCCC2)c(C(=O)NC2(C)CCS(=O)(=O)C2)c1 (stereo unspecified)	-4.1%	u	x	3.7%	x	x	5.1%	-0.9%
Cn1c(=O)c2c(SCC(=O)Nc3ccccc3F)nc(-c3ccccc3F)nc2n(C)c1=O	11.8%	-5.0%	2.0%	11.7%	x	x	-5.8%	-16.8%
Cc1occc1C(=O)NCc1ccc2c(c1)OCO2	-0.8%	-5.5%	6.8%	3.5%	1.5%	-12.7%	-2.7%	14.9%
Cc1ccc(N2C(=O)CC(Sc3nccc(C)n3)C2=O)cc1 (stereo unspecified)	6.6%[46.1 µM]	u	-0.3%	-5.7%	x	x	-12.9%	9.7%
Cc1ccc(CC2SC(=Nc3ccccc3)N(c3ccccc3)C2=O)cc1 (stereo unspecified)	u	u	-18.3%	7.1%	-4.5%	-2.5%	-54.9%	u
O=C(CN1C(=O)CCSc2ccc(S(=O)(=O)N3CCCC3)cc21)Nc1cccc(F)c1	1.8%[46.1 µM]	x	x	x	-2.1%	-8.7%	x	-11.0%
Cc1c(NC(=O)Cn2ccc([N+](=O)[O-])n2)c(=O)n(-c2ccccc2)n1C	10.4%	0.9%	-11.3%	-1.1%	2.4%	-1.9%	-15.7%	6.7%
CCCn1c(=O)c2[nH]c(C3CCCC3)nc2n(CCCOC(=O)c2ccc(S(=O)(=O)F)cc2)c1=O	u	u	-3.1%	x	-3.8%	-11.2%	x	x
CCOC(=O)c1[nH]ncc1CN1CCCC(C(=O)c2cccc(Cl)c2)C1 (stereo unspecified)	x	3.0%	-3.9%	-8.1%	x	x	-0.7%	-2.6%
CC(C)(C)C(=O)N1CCN(c2nc3ccc(Br)cc3s2)CC1	x	x	-9.7%	-16.6%	x	x	u	-11.2%
CC(/C=N/n1c(-c2ccc(C)cc2)n[nH]c1=S)=C\c1ccco1	u	u	17.5%	-13.0%	-10.4%	-3.0%	2.0%	0.9%
CCOC(=O)N1CCc2c(sc(NC(=O)C3=COCCO3)c2C(N)=O)C1	-1.2%	3.6%	6.1%	8.5%	x	x	-2.5%	-5.4%
COc1ccc(C(=O)OCC(=O)NC(C)CCc2ccccc2)cc1OC (stereo unspecified)	x	x	-2.4%	5.0%	x	x	0.7%	0.0%
O=C(COc1ccccc1F)Nc1nnc(-c2ccncc2)s1	11.0%	-0.1%	-3.7%	-8.3%	-4.8%	-8.4%	1.2%	21.3%
CC1=NN(S(=O)(=O)c2ccc(C)cc2)C(=O)c2ccccc2O1	x	x	-11.1%	15.4%	x	x	1.2%	-6.8%
Cc1ccc2c(c1)N(CCCC(=O)Nc1cccc(C(F)(F)F)c1)C(=O)CO2	-28.5%	u	6.9%	-16.7%	-14.3%	9.6%	11.7%	0.0%&-27.6%
CCOc1ccc(NC(=O)Nc2ccccc2C(N)=O)cc1	2.6%[46.1 µM]	0.7%[46.1 µM]	-1.3%	u	x	x	-3.7%	36.4%[activator]
O=C(COC(=O)CNC(=O)c1ccccc1)NC1CCCC1	-12.9%	0.5%[46.1 µM]	x	4.9%	x	x	-6.9%	0.0%
CC(=O)c1c(OC(=O)c2ccccc2Br)ccc2c(C)cc(=O)oc12	-0.2%	-1.3%	14.1%	2.7%	-8.8%	-10.5%	-3.9%	u
COc1cccc(-c2nc(N3CCN(C)CC3)c3ccccc3n2)c1O	u	u	-9.4%	-20.3%	x	x	-0.8%	8.3%
Cc1ccc(C2(C)NC(=O)N(CC(=O)NC(C)c3ccccc3)C2=O)cc1 (stereo unspecified)	u	u	6.7%	7.4%	x	x	-5.7%	-7.7%
COC(=O)C1=C(N)Oc2cc(C)n(Cc3cccnc3)c(=O)c2C1c1ccccc1OC (stereo unspecified)	-16.3%	-0.1%	-20.3%	9.5%	1.8%	0.3%	2.5%	-17.3%
COc1ccc(NS(=O)(=O)c2cccc(C(=O)NCC(c3ccc(OC)cc3)N3CCCC3)c2)cc1 (stereo unspecified)	-26.8%	u	x	-6.7%	x	x	2.0%	-4.1%
O=C(COc1ccc2ccc(=O)oc2c1)N1CCC(C(=O)O)(c2ccccc2)CC1	x	x	14.7%	-11.2%	x	x	1.0%	-7.2%
O=C(c1ccccc1F)N1CCN(S(=O)(=O)c2ccc3ccccc3c2)CC1	x	x	-23.3%	2.0%	x	x	0.1%	-21.1%
O=C(NCC1CCCO1)C1c2ccccc2C(=O)N1Cc1ccc2c(c1)OCO2 (stereo unspecified)	u	-4.9%	u	-9.0%	-0.5%	1.8%	12.0%	-15.4%
Cc1ccc(Cn2c(CO)cnc2SCc2cccc(F)c2)cc1	u	x	x	x	-4.5%	4.5%	x	-2.2%
O=C(O)CNC(=S)N(Cc1ccco1)Cc1ccccc1Cl	1.1%	16.8%	-2.6%	14.9%	-3.0%	-7.0%	2.7%	-27.0%

Overlap with the part before: two entries; new compounds follow.
SMILES	LASV entry inh	Marburg entry inh	NS1 function inh	RE007 growth inh	Cruzain inh Det	Cruzain noTriton	SARS PLP yeast	2A StopGo
Cc1ccc(Cn2c(CO)cnc2SCc2cccc(F)c2)cc1	u	x	x	x	-4.5%	4.5%	x	-2.2%
O=C(O)CNC(=S)N(Cc1ccco1)Cc1ccccc1Cl	1.1%	16.8%	-2.6%	14.9%	-3.0%	-7.0%	2.7%	-27.0%
Cn1c(C(=O)NC2CCCC2)cc2c(=O)n(C)c3ccccc3c21	x	x	-45.6%	0.2%	-6.3%	u	-1.2%	-12.0%
c1ccc(CCNC2=NCCS2)cc1	2.9%	4.7%[46.1 µM]	3.3%	-18.1%	x	x	0.2%	5.8%
Cc1ccc(F)c(NC(=O)Nc2ccc3snnc3c2)c1	-0.8%[46.1 µM]	3.8%[46.1 µM]	x	x	-3.5%	-11.7%	x	12.9%
COc1ccc(NC(=O)C(=O)NCCN2CCN(C(=O)c3cccc(Br)c3)CC2)cc1	u	-0.1%	-2.3%	-30.0%	x	x	-3.7%	-24.8%
O=C(NNC(=O)C1CCCCC1)c1ccco1	1.1%[46.1 µM]	6.1%[46.1 µM]	x	10.1%	x	x	1.1%	-0.9%
CN1C(=O)N(C)C(=O)C(CCc2ccncc2)(Cc2ccc3c(c2)OCO3)C1=O	0.7%	-12.6%	-9.7%	10.4%	2.3%	3.5%	-1.5%	x
O=C(COC(=O)c1cc2ccccc2oc1=O)Nc1cccc(S(=O)(=O)N2CCCCCC2)c1	u	7.1%	-4.7%	10.8%	-0.5%	-3.1%	6.2%	25.8%
CCOC(=O)c1sc(NC(=O)COC(=O)CNC(=O)C2CCCCC2)c(C(=O)OCC)c1C	5.8%	18.3%	-4.4%	-2.4%	2.24µM*	-29.3%	16.7%	-20.7%
OC(COCc1ccccc1)CN1CCCCC1 (stereo unspecified)	x	x	8.5%	-10.1%	x	x	19.2%	-9.2%
OCCN(Cc1ccccc1)Cc1ccc(Cl)cc1	8.1%	0.1%	0.0%	-10.8%	2.3%	-0.4%	2.2%	x
COCc1cccc(N2C(=O)CC(C3C=C(C)C4C(=O)N(c5cccc(COC)c5)C(=O)C4C3)C2=O)c1 (stereo unspecified)	8.8%	u	x	3.6%	x	x	2.1%	-28.7%
CCOc1cc2c(cc1OC)C(NC(=O)c1ccco1)CC2=O (stereo unspecified)	2.2%[46.1 µM]	2.5%[46.1 µM]	6.1%	16.5%	x	x	0.0%	-1.1%
COc1ccc(CC(=O)Nc2cccc(-c3nnc(-c4ccccc4)o3)c2)cc1OC	7.3µM*	4.61µM*	-54.9%	4.6%	-2.1%	u	2.4%	x
CCN(CC(=O)Nc1ccccc1C(F)(F)F)C(=O)CSCc1ccc(C)cc1	-15.2%	-20.4%	x	1.0%	x	x	-3.2%	-7.6%
Cc1ccc(S(=O)(=O)NC(N)=NCCc2ccccc2)cc1C	9.3%	15.3%	0.4%	12.9%	-0.2%	0.1%	-6.9%	-0.5%
CCn1cc(C(=O)N2CCN(c3ccc(OC)cc3)CC2)c2cc(OC)c(OC)cc2c1=O	1.6%[46.1 µM]	25.8%&25.8%[46.1 µM]	x	1.7%	-3.0%	2.8%	-0.7%	-8.3%&-4.1%
Cc1ccc(C)c(NC(=O)CN2C(=O)COc3ccc(S(=O)(=O)N4CCCC4)cc32)c1	0.3%[46.1 µM]	9.2%[46.1 µM]	-1.1%	3.7%	x	x	2.3%	1.1%
